Screening results as filed in PubChem.
VDR inhibitor: inhibitors of human vitamin D receptor. 400,000 tested, 0.93% active. VDR-SRC2-3 peptide fluorescence polarization, 2 h. P11473. Potency, µM, for the others: max response, negative = inhibition, usual class: inhibitors; active = well fitted inhibition curve with a large enough effect; inconclusive = small, poorly fitted or top-dose-only effect, or another doubt; inactive = no such curve, though single readings can be large or run the other way; note: series mostly up to about 120 µM
Target sequence (P11473 whole entry, looked up): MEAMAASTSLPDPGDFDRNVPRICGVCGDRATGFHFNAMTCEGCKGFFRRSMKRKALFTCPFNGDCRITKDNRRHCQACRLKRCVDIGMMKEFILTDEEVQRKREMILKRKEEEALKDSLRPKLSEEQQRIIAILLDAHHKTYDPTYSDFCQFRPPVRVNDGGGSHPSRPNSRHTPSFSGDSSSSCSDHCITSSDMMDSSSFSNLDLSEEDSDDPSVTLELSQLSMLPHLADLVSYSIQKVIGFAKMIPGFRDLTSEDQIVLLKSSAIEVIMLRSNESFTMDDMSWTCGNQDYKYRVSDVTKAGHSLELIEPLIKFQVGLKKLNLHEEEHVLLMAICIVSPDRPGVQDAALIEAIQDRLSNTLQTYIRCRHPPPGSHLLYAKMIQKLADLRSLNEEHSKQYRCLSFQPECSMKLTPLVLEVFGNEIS
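Measured by FP: displacement of SRC2-3 coactivator peptide from VDR by library compounds, following a two-hour ambient incubation.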
The depositor's hits bear a star; ? = inconclusive; & = joins results of further samples; [ ] = remark or other dose. % is set by controls: 0 for no effect and ±100 for the full control effect; potency is the fitted concentration of half-maximal effect. Only part of the results is shown (hit frequency here may not be typical).

SMILES	VDR inhibitor
CN(C)S(=O)(=O)N(CC(=O)Nc1ccc(F)c(F)c1)c1ccccc1	11.5%
CCc1ccc(NC(=O)C2CCN(S(=O)(=O)c3ccc4c(c3)N(C(C)=O)CCO4)CC2)cc1	-13.4%
Cc1ccc(CNC(=O)c2ccc(OCC3CCCO3)cc2)cc1 (centres undefined)	-16.9%
COC(=O)C1CCN(C(=O)c2ccc3nccnc3c2)CC1	-7.4%
Cc1ccc(S(=O)(=O)N2CCN(c3ccnc4cc(Cl)ccc34)CC2)cc1C	-17.6%
CCCOc1ccc(N2C(=O)CC(N(CCCO)C(=O)CC)C2=O)cc1 (centres undefined)	0.5%
COc1ccc2c(CNCc3ccco3)c(C(=O)O)n(Cc3cccc(F)c3)c2c1	1.0%
CC(C)(C)NC(=S)NCc1cccnc1	6.9%
Cc1cccc2cc(C#N)c(SCc3nnc(-c4ccccc4[N+](=O)[O-])o3)nc12	10.9%
CO/N=C/c1ccc(Oc2ccc(C)cc2)c([N+](=O)[O-])c1	28.2µM*
Cc1ccc2[nH]c(=O)c(CNC(C)C)cc2c1	-6.3%
CC(C)CCNC(=O)c1c[nH]c2ccc(S(=O)(=O)Nc3cccc(C(F)(F)F)c3)cc2c1=O	7.6%
Cc1nn(C(C)C(=O)NCCCN2CCCCC2C)c(=O)c2c1sc1ccccc12 (centres undefined)	4.3%
O=[N+]([O-])c1cc(S(=O)(=O)NCCN2CCOCC2)ccc1Cl	4.4%
CCCCCC(=O)N1c2ccccc2C(C)(c2ccccc2)CC1(C)C (centres undefined)	5.9%
Cc1nnc(SCC(=O)c2c(N)n(C)c(=O)n(C)c2=O)n1Cc1ccccc1	-7.4%
Cc1cccc(C)c1NC(=O)c1cccc2c1C(=O)N(C1CCCCC1)C2	-16.1%
O=C1NC(c2cccnc2)C(C(=O)c2cccs2)C(O)(C(F)(F)F)N1 (centres undefined)	35.4%[activator]
OC(CNCc1ccco1)Cn1c2ccccc2c2ccccc21 (centres undefined)	1.9%
CCC(C)NC(=O)CSc1nc2cc(S(=O)(=O)N3CCOCC3)ccc2n1CC (centres undefined)	-5.0%
O=C1[C@@H]2Cc3c([nH]c4ccccc34)C(c3cccc(Br)c3)N2C(=O)CN1C1CCN(Cc2ccccc2)CC1 (some centres undefined)	-19.2%
CC(OC(=O)CCc1ccccc1)C(=O)Nc1ccc(Cl)cn1 (centres undefined)	?
O=C(COc1c(Cl)cccc1Cl)Nc1ccccc1N1CCCC1	1.9%
COc1ccc(-n2c(CCc3ccccc3)nnc2SCC(=O)c2ccccc2)cc1	11.2%
COc1ccc(-c2nc3c(n2O)CCC/C3=N\O)cc1	-10.2%

Laid out differently: results already given.
SMILES,VDR inhibitor
CCCOc1ccc(N2C(=O)CC(N(CCCO)C(=O)CC)C2=O)cc1 (centres undefined),0.5%
COc1ccc2c(CNCc3ccco3)c(C(=O)O)n(Cc3cccc(F)c3)c2c1,1.0%
CC(C)(C)NC(=S)NCc1cccnc1,6.9%

In the list so far, 4 contain an aryl thioether with sulfur outside any ring:
SMILES	VDR inhibitor
Cc1cccc2cc(C#N)c(SCc3nnc(-c4ccccc4[N+](=O)[O-])o3)nc12	10.9%
Cc1nnc(SCC(=O)c2c(N)n(C)c(=O)n(C)c2=O)n1Cc1ccccc1	-7.4%
CCC(C)NC(=O)CSc1nc2cc(S(=O)(=O)N3CCOCC3)ccc2n1CC (centres undefined)	-5.0%
COc1ccc(-n2c(CCc3ccccc3)nnc2SCC(=O)c2ccccc2)cc1	11.2%

Further compounds:
SMILES	VDR inhibitor
CCN1C[C@@H]2[C@@H]3C(=O)N(Cc4ccccc4)C(=O)[C@@H]3[C@](Cc3ccccc3)(C(=O)OC)N2C1=NCc1ccccc1	5.1%
C=CCN1C(=O)c2ccc(C(=O)N3CCN(c4ccccc4OC)CC3)cc2C1=O	-2.0%
CC(=O)NCC(=O)NC(C(=O)Nc1ccc2c(c1)OCCO2)c1ccc(C)cc1 (centres undefined)	-4.5%
O=C(CCN1C(=O)/C(=C/c2ccccc2Cl)SC1=S)NC1CCS(=O)(=O)C1 (centres undefined)	6.0%
O=C(CSCc1ccc(Cl)cc1)Nc1ccccc1C(=O)N1CCOCC1	0.7%
CCOc1cc2c(cc1OCC)C(c1ccccc1)N(c1ccccc1)C(=O)C2 (centres undefined)	-5.6%
CC(=O)c1ccc(NC(=O)c2ccc3nc(C)sc3c2)cc1	9.4%
O=C(O)CC(NC(=O)C12CC3CC(CC(C3)C1)C2)c1ccc(F)cc1 (centres undefined)	5.5%
COc1ccc(C(C(=O)NC(C)(C)C)N(C(=O)CCC(=O)Nc2cc(C)on2)c2cccc(F)c2)cc1 (centres undefined)	-14.9%
O=C(Nc1ccc(N2CCOCC2)c(S(=O)(=O)Nc2ccccc2Cl)c1)c1ccc(=O)[nH]n1	-11.5%
CN(C(N)=S)c1ccccc1	-4.6%
Cc1cc(Nc2ccc(F)cc2Cl)n2nc(C)nc2n1	-11.3%
Cc1cc(C)n(-c2ccc(C(=O)OCC(=O)Nc3ccc(S(=O)(=O)N4CCOCC4)cc3)cc2)n1	27.6%
CCCC1(C2CCCC2)NC(=O)NC1=O (centres undefined)	-4.3%
Cc1ccnc(NC(=O)C2CCCN(S(=O)(=O)c3cnc[nH]3)C2)c1 (centres undefined)	-5.4%
Cc1ccc(NC(=O)c2nc(S(C)(=O)=O)ncc2N(Cc2ccccc2)Cc2ccco2)c(C)c1	-7.0%
CC(NC(=O)COC(=O)CCc1ccc(S(=O)(=O)N2CCOCC2)cc1)C1CC2CCC1C2 (centres undefined)	-2.2%
N=c1c(S(=O)(=O)c2ccccc2)cc2c(=O)n3ccccc3nc2n1Cc1cccnc1	-7.5%
CN(C(=S)Oc1ccc(C(=O)Nc2ccccc2)cc1)c1ccccc1	-5.3%
CC(=O)Oc1ccc(C(=O)NCCc2ccccc2)cc1	6.3%
COc1cc(C(=O)NC(=S)Nc2ccc3oc(=O)ccc3c2)cc(OC)c1OC	-3.9%
CC(C)(C)OC(=O)[C@H](Cc1ccccc1)NC(=O)c1nc[nH]c1C(=O)NC1CCNCC1	-8.3%
Cc1ccc(N(C(=O)c2csnn2)C(C(=O)NC2CCCC2)c2ccncc2)c(C)c1 (centres undefined)	-2.1%
O=C(CSC(=S)N1CCN(c2ccccc2)CC1)Nc1nc(-c2ccccc2)c(-c2ccccc2)o1	8.8%
COCc1cc(=O)[nH]c(-c2csc(C)n2)n1	12.7%

The list goes on; the last 7 above are carried over.
SMILES	VDR inhibitor
CN(C(=S)Oc1ccc(C(=O)Nc2ccccc2)cc1)c1ccccc1	-5.3%
CC(=O)Oc1ccc(C(=O)NCCc2ccccc2)cc1	6.3%
COc1cc(C(=O)NC(=S)Nc2ccc3oc(=O)ccc3c2)cc(OC)c1OC	-3.9%
CC(C)(C)OC(=O)[C@H](Cc1ccccc1)NC(=O)c1nc[nH]c1C(=O)NC1CCNCC1	-8.3%
Cc1ccc(N(C(=O)c2csnn2)C(C(=O)NC2CCCC2)c2ccncc2)c(C)c1 (centres undefined)	-2.1%
O=C(CSC(=S)N1CCN(c2ccccc2)CC1)Nc1nc(-c2ccccc2)c(-c2ccccc2)o1	8.8%
COCc1cc(=O)[nH]c(-c2csc(C)n2)n1	12.7%
COc1ccc(-n2c(C)ccc2-c2ccccc2)cn1	-14.8%
CC[C@@]1(C(=O)OC)N[C@H](CN(C)C(=O)Nc2ccc(OC)cc2)[C@@H]2C(=O)N(Cc3ccccc3)C(=O)[C@@H]21	6.0%
Cc1cc(C)nc(Nc2n[nH]c(-c3ccccc3N)n2)n1	13.7%
COc1ccc(NC(=O)/C(C#N)=C/c2cccnc2)c(OC)c1	-13.2%
COc1cccc2cc(-c3cc(=O)oc4ccc(O)cc34)oc12	-6.4%
COC(=O)C1=C(C)NC2=C(C(=O)CC(C)(C)C2)C1c1ccccn1 (centres undefined)	-3.9%
Cc1ccc(-c2noc(CCCOc3ccc(Cl)cc3Cl)n2)cc1	5.1%
CN(C(=O)CC1C(=O)NCCN1CC1CCCCC1)C1CCOCC1 (centres undefined)	7.0%
CCCCCCn1c(N2CCC(C)CC2)nc2c1c(=O)[nH]c(=O)n2C	0.5%
CCOc1ccc(CNc2ccc3c(c2)ncn3C(C)(C)C)cc1	-14.2%
O=C(c1ccc(Cl)cc1)N(c1ccccn1)C1CCCCC1	-11.4%
O=C(C1CCN(S(=O)(=O)c2ccc(Br)s2)CC1)N1CCc2ccccc21	5.6%
O=C(CN1C(=O)COc2ccc(S(=O)(=O)N3CCCCCC3)cc21)N1CCN(c2cccc(C(F)(F)F)c2)CC1	-2.1%
O=C(CC12CC3CC(CC(C3)C1)C2)NC(Cc1ccccc1)C(=O)O (centres undefined)	10.3%
COc1ccc(C)cc1N(C(=O)CNC(=O)c1ccco1)C(C(=O)NCC1CCCO1)c1ccccc1 (centres undefined)	20.9%
COc1ccc(F)c(-c2nc(CN3CCN(C(=O)c4ccco4)CC3)c(C)o2)c1	-21.7%
CCOC(=O)N1CCN(CCC(=O)Nc2cc(OC)ccc2OC)CC1	12.2%
Cc1ccccc1Cn1cnc2ccccc21	-4.3%
Cc1ccc(S(=O)(=O)N2CCC(n3c(C)nc4cccnc43)CC2)c(C)c1	9.4%
Cc1ccc(S(=O)(=O)c2nc(-c3ccco3)oc2SCc2ccccc2Cl)cc1	6.7%
C/C(=C\C(=O)c1c(O)cc(C)oc1=O)N(C)C	4.7%
CC(C)CCc1noc(CN2CCN(CC(=O)NC(C)C)CC2)n1	-10.5%
CC(C)(C)c1ccc(OCCC(=O)OCC(=O)NC(=O)NC2CCCC2)cc1	6.9%
Cc1cc(C)n2nc(C(=O)Nc3cccc(S(=O)(=O)N4CCCC4)c3)nc2n1	1.3%
O=C(N/N=C\c1cc2c(cc1Cl)OCO2)c1ccc(Br)s1	-0.1%
SMILES	VDR inhibitor
O=C(NNC(=S)NC(=O)c1ccccc1)c1ccc([N+](=O)[O-])cc1	-10.1%
Cc1cccc(NC(=O)c2ccc(Cl)c(S(=O)(=O)N3CCCCCC3)c2)n1	-12.1%
COC(=O)c1sccc1NC(=O)c1ccc2c(c1)OCO2	0.8%
CCOC(=O)C(NC(=O)CC(C)C)(Nc1sc(C)c(CC)c1C#N)C(F)(F)F (centres undefined)	2.2%
O=C(CN1C(=O)C(=O)c2ccccc21)NCCc1ccccc1	-6.1%
O=c1c2ccccc2c(-c2ccccc2)nn1-c1cc(Cl)cc(Cl)c1	-9.4%
O=C(O)C1C2CCC(C2)C1C(=O)NCCc1ccccc1 (centres undefined)	4.9%
COc1cccc(CNC(=O)c2cc(C3CC3)nc3c2cnn3C(C)C)c1	0.0%
C=C1CCN(CC(=O)OC)S(=O)(=O)c2ccccc21	-16.9%&3.8%
CC(C)(Oc1ccc(C2CCCc3ccccc32)cc1)C(=O)O (centres undefined)	-1.0%
COc1ccc(-c2nnc(SC(C)C#N)o2)cc1 (centres undefined)	-6.8%
COc1cc(N2CCCC2)c(OC)cc1/C=C(/C#N)c1cccc(F)c1	-13.3%
CC(C)CC(NC(=O)C1CCC(C)CC1)C(=O)Nc1ccc2c(c1)OCCO2 (centres undefined)	-24.5%
O=C(Nc1ccccc1)c1c(F)c(F)c(F)c(F)c1F	17.2%
CC(C)(C)c1ccc(C(=O)N2CCN(C(=O)C3CCCCC3)CC2)cc1	-10.7%
O=C(COc1ccc(Cl)cc1)NCc1nnc2c3ccccc3c(-c3ccccc3)nn12	-3.3%
CCOc1ccc(/C=C/c2nc(C#N)c(Nc3ccc(OCC)cc3)o2)cc1	1.9%
CC(C)Cc1cc(C(=O)Nc2cccc(O)c2)no1	3.5%
Cc1ccccc1N(CC(=O)NCCSCc1ccco1)S(C)(=O)=O	18.1%
Cn1c(SCC(=O)Nc2ccccc2)nnc1-c1ccc(NC(=O)CCc2ccccc2)cc1	-12.3%
N#Cc1c(-c2ccccc2)cc(-c2ccccc2)nc1Br	9.3%
CCOc1ccc(CC(=NCCO)C2=C(O)CC(C)(C)CC2=O)cc1OCC	-13.8%
CCC(C)(C)C1CCc2[nH]nc(C(=O)NCCNC(=O)OC(C)(C)C)c2C1 (centres undefined)	-16.8%
CCOc1ncccc1C(=O)NCc1ccc(OC)c(OC)c1	-16.5%
COc1cccc(Nc2ccccc2C(=O)O)c1	1.9%
COCCNc1nc(N2CCCCC2)c2cnn(C)c2n1	7.0%
